# gsp agonist = gsp mutant agonism. gsp mutant cells, cAMP HTRF, 30 min; control for the full effect not named in the record. 0.13% of 340,000 active. AID 624287. Potency, µM (top dose mostly 76.9 µM), without a hit: at the highest dose activation (cAMP increase), actives largely listed as activators; active = well fitted activation curve with a large enough effect; inconclusive = small, poorly fitted or top-dose-only effect, or another doubt; inactive = no such curve, though single readings can be large or run the other way; cell line not stated here;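 note: phosphodiesterase inhibitor Ro 20-1724 added with compounds to block cAMP breakdown; potency is the fitted concentration of half-maximal effect; nearly all actives have a fitted effect of over 60% in size; about a fifth of the inactives were tested at one dose only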
#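 Cells stably selected in G418 were plated at 2000/well, grown 16-24 hr, then given compounds in DMSO with the PDE inhibitor […] (300 uM solution added) for 30 min at 37C; cAMP was read by HTRF.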
# TRPV1 potentiator = human TRPV1 potentiation; 0.02% of 320,000 active; Q8NER1; TRPV1-expressing cells, Fluo-8 calcium influx, capsaicin EC20 potentiation; host cell line not named in the record; control for the full effect not named in the record; potentiation, % at 8.33 µM; active means potentiation above 80%; inconclusive means 30% to 80%; inactive means below 30%; note: 0% is about no effect
# Target sequence (Q8NER1 whole entry, looked up): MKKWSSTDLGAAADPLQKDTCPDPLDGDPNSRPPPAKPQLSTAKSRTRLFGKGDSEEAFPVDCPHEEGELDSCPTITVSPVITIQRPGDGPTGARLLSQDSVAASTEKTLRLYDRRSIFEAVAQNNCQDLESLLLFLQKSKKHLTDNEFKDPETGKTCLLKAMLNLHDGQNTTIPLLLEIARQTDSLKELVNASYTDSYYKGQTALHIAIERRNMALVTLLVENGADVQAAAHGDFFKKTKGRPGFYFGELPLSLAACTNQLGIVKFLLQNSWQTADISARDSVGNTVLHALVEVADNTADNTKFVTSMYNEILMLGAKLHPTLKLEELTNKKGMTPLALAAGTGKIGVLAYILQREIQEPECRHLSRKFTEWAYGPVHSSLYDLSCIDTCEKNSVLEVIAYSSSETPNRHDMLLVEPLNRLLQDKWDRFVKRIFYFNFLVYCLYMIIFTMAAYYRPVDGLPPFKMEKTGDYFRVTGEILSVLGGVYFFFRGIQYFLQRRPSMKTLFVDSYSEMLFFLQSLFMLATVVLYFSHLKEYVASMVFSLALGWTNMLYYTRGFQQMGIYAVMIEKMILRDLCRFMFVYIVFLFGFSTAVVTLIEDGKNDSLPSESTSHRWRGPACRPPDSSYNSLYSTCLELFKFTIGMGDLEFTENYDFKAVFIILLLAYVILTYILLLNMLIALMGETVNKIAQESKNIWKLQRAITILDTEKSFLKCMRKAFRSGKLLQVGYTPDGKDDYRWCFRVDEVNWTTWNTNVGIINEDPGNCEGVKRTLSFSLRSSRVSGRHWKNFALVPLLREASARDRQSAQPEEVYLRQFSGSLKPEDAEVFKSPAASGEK
#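 Fluo-8 calcium influx in TRPV1-expressing cells, kinetic read (ex 480/em 520 nm). Compound added and read 3 min for agonist activity, followed by capsaicin at EC20 final and 2 min further read for enhancement.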
# D2 PAM = positive allosteric modulators of human D2 dopamine receptor. AID 624464. 0.23% of 360,000 active. DiscoveRx D2 beta-arrestin cells, luminescence, 90 min; 100% = 57 uM dopamine signal. potentiation, % (test concentration not listed); active = potentiation of 50% or more; inconclusive = 30% to 50%; inactive = 30% or less;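 note: compound concentration not given in the record; tested on top of an EC20 dose of dopamine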
#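 D2 cells co-treated with compound plus 50 nM dopamine (EC20) for 90 min at 37 deg C to detect potentiation. Beta-arrestin recruitment was read as enzyme-fragment luminescence after 1 h at ambient temperature. Full response was set by 57 uM dopamine.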
# Sfp PPTase inh = inhibitors of Bacillus subtilis Sfp phosphopantetheinyl transferase. Potency, µM, inactives show max response, negative = inhibition, actives largely listed as inhibitors. Q9F4F7. Biochemical Sfp PPTase activity, qHTS. AID 1490. 3.5% of 310,000 active; active = well fitted inhibition curve with a large enough effect; inconclusive = small, poorly fitted or top-dose-only effect, or another doubt; inactive = no such curve, though single readings can be large or run the other way;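 note: the enzyme is Sfp with the accession as filed and its product quenches rhodamine fluorescence; potency is the fitted concentration of half-maximal effect; 0% = enzyme reaction without inhibitor and -100% = no enzyme wells; top concentration of the series not given in the record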
#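 Fluorescence-quenching assay with 15 nM Sfp, 5 uM rhodamine-CoA and 12.5 uM BHQ-2-labelled ybbR peptide in pH 7.6 Hepes/MgCl2 buffer. Enzyme was pre-incubated with compound for 15 min at room temperature. Rate was taken from the 30-min fluorescence change (525/598 nm).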
# gsp antagonist = antagonists of gsp mutant (McCune-Albright syndrome). 0.4% of 340,000 active. gsp-mutant cells, cAMP HTRF, 30 min; control for the full effect not named in the record. Potency, µM (doses to about 76.9 µM), for the others: top-dose activity change, negative = inhibition, most hits filed as inhibitors; active = falling curve of any shape with a large fitted effect; inconclusive = falling curve, mostly with a smaller effect; inactive = flat or rising curve; cell line not stated here;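 note: intracellular cAMP measured with PDE inhibitor Ro 20-1724 present during compound exposure; potency is the fitted concentration of half-maximal effect; % is set by controls: 0 for no effect and ±100 for the full control effect; nearly all actives have a fitted effect of over 65% in size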
#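 G418-selected cells were plated in DMEM/10% FBS for 16-24 h at 37C, then treated with compounds plus the PDE inhibitor […] (300 uM solution added) for 30 min at 37C. Intracellular cAMP was measured by HTRF after 30 min lysis at room temperature.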
# ClpP mod = qHTS Assay for Activators of ClpP; ATP-dependent Clp protease proteolytic subunit (Bacillus subtilis (strain 168)), P80244; Potency, µM (top dose mostly 57.5 µM), inactives show at the highest dose activity change, negative = active; purified B. subtilis ClpP, FRET peptide cleavage, 20 min; 1.9% of 340,000 active; active = well fitted falling curve with a large enough effect; inconclusive = small, poorly fitted or top-dose-only effect; inactive = no such curve, though single readings can be large or run the other way; note: potency is the fitted concentration of half-maximal effect; the source files actives as falling curves though it sought activators and does not explain the sign; nearly all actives have a fitted effect of over 65% in size; many hits overshoot -100%
# Target sequence (P80244 whole entry, looked up): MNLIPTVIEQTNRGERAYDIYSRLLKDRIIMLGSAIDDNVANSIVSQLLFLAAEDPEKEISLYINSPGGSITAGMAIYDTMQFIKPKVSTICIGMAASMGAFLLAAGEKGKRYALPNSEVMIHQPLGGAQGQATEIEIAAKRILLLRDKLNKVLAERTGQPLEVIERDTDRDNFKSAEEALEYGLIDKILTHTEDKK
#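 Buffer: 100 mM Tris/HCl pH8, 100 mM KCl, 0.05% low protease BSA, 2.5% glycerol, 0.01% Tween-20. ClpP 10 microg/mL final; 20 min RT; delta FRET normalized to ADEP and DMSO controls.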
# Menin MLL FP FL = menin-MLL binding inhibition, fluorescein peptide | 290,000 tested, under 10 active | Fluorescence polarization, fluorescein-MLL peptide displacement from menin | FP activity change, % at 61.4 µM | AID 1766; inconclusive = falling polarisation curve, or a change in total fluorescence; inactive = total fluorescence flat and polarisation flat or rising; no compound was filed as active; the % refers to the polarisation; negative = inhibition;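 note: % of control where 0% means no effect; inhibitors lower the polarisation; unlabelled MLL peptide was the positive control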
# * = called active by the depositor; u = inconclusive; x = no result given; [ ] = another dose, or the depositor's remark. Compounds were not picked by outcome. Share with any hit: about 5.1%.
# Results follow in this order: gsp agonist	TRPV1 potentiator	D2 PAM	Sfp PPTase inh	gsp antagonist	ClpP mod	Menin MLL FP FL
> CCOC(=O)CSc1nccc(N(C)C)c1C#N
→ 0%	3	-4	-4%	-11%	0.6%	-0.8
> CCc1ccc(N2C(=O)CN(Cc3sccc3C)C2=S)cc1
→ 16%[15.4 µM]	-12	6	2%	u	x	0.6
> CCOc1ccccc1C(=O)NC(C(=O)NCCc1ccccn1)C(C)C (stereo unspecified)
→ -9%	x	12	x	-3%	1.3%	x
> Cc1ccc(N(CC(=O)N2CCN(c3ccc(F)cc3)CC2)S(=O)(=O)c2c(C)noc2C)cc1
→ -8%	7	-5	10%	-13%	-1.2%	-3.6
> CCn1cnc2sc(-c3ccccc3)cc2c1=O
→ 0%	3	-1	2%	0%	-6.4%	3.7
> COC(=O)c1cc(Br)c(=O)n(CCC2=CCCCC2)c1
→ -1%	-16	-4	23%	-4%	-0.4%	3.2
> CC(C)(C)c1cc(NC(=O)COC(=O)c2ccc(O)cc2O)n(-c2ccccc2)n1
→ 6%[15.4 µM]	12	13	x	-12%	2.4%	x
> COc1ccc(CC(=O)N2CCCc3ccccc32)cc1OC
→ 1%	-1	11	14%	-18%	-5.0%	-1.7
> CC(C)c1ccc(/C=C/C(=O)O)cc1
→ -7%[15.4 µM]	-2	2	u	-1%	x	7.7
> CC(=O)Nc1cc(C(F)(F)F)ccc1N1CCOCC1
→ 2%	11	-8	-6%	9%	-1.0%	-2.6
> O=C(c1ccccc1)N1CCN(C(=O)c2cccnc2)CC1
→ -25%	11	-1	-3%	10%	-0.4%	0.7
> COc1ccc(-n2nc(C(=O)NCC(=O)NCCCN3CCOCC3)c3ccccc3c2=O)cc1Cl
→ 41%[15.4 µM]	3	-8	15%	15%	x	x
> CC(=O)C1=C(O)C(=O)N(c2ccc(Br)cn2)C1c1cccc([N+](=O)[O-])c1 (stereo unspecified)
→ 18%	7	-15	5%	-10%	-4.0%	4.2
> Cc1ccc(NC(=O)c2cc(-c3ccccc3)n[nH]2)cc1
→ -13%	7	-4	6%	-13%	-3.3%	-1.5
> Cn1c(C(=O)NCCCN2CCN(c3ccccc3F)CC2)cc2c(=O)n(C)c3ccccc3c21
→ -28%	6	-5	-8%	0%	4.6%	1.4
> COc1ccc(OCC(O)CNC(=O)Nc2ccccc2)cc1 (stereo unspecified)
→ 21%	x	-6	3%	2%	x	1.2
> CSCCC(NC(=O)COc1ccccc1)C(=O)OCC(=O)c1cc2ccccc2o1 (stereo unspecified)
→ -11%	-3	-33	6%	-11%	1.3%	2.2
> O=C(NCc1cccc(Cl)c1)c1ccc(S(=O)(=O)Nc2cccc(C(F)(F)F)c2)cc1
→ -2%[15.4 µM]	7	15	27%	-3%	u	7.7
> CCC(CC)C(=O)Nc1cccc(C(=O)Nc2ccc3c(c2)OCO3)c1
→ 3%	-3	-10	16%	-3%	0.1%	0.2
> O=C(CCCN1C(=O)CCC1=O)Nc1ccc(Br)cc1F
→ 4%	4	-9	12%	6%	0.5%	1.4
> Cc1ccc(CNC(=O)C2CCCN(S(=O)(=O)c3c(C)[nH]c(=O)[nH]c3=O)C2)cc1 (stereo unspecified)
→ -7%	5	-10	5%	10%	2.3%	-3.2
> O=C(NCc1cccnc1)C1CCC(CNS(=O)(=O)c2cccc3nsnc23)CC1 (stereo unspecified)
→ u	4	2	-1%	12%	-0.7%	0.6
> CC(C)(C)C1CCC(OC(=O)C[N+]2(C)CCCC2)CC1 (stereo unspecified)
→ -6%[15.4 µM]	3	3	5%	14%	x	3.9
> CCOC(=O)C1=C(c2ccccc2)NC(=O)NC1c1ccc(OC)cc1 (stereo unspecified)
→ -4%[15.4 µM]	4	4	13%	3%	x	-1.0
> Cc1ccc2nc(-c3cccnc3)c(NC3CCCCC3)n2c1
→ -8%	-3	-2	0%	-4%	-1.3%	3.3
> CCOc1nc2c(c(-c3cccs3)c1C#N)Cc1ccccc1-2
→ -6%[15.4 µM]	1	-2	17%	9%	x	7.2
> CCOC(=O)CNC(=O)CSc1nnc(-c2ccco2)n1N
→ -4%	-4	0	-3%	1%	0.1%	-1.6
> CC(=O)OC(C=C(C)C)C/C(C)=C/COc1c2ccoc2cc2oc(=O)ccc12 (stereo unspecified)
→ x	x	4	x	-25%	-18%	x
> Cc1ccc(OCC(=O)N/N=C/c2ccc([N+](=O)[O-])o2)cc1
→ u	-2	6	-6%	10%	-0.6%	2.5
> S=c1cn[nH]c2ccccc12
→ 1%[15.4 µM]	x	-22	x	u	-0.1%	x
> Cc1c(C)c2ccc(OC(C)C(=O)N3CC[C@@]4(O)CCCC[C@H]4C3)c(C)c2oc1=O (stereo partly specified)
→ x	-10	-21	11%	-4%	4.7%	1.4
> O=C(c1cc(Cl)ccc1[N+](=O)[O-])N1CCc2ccccc2C1
→ -13%	4	9	-4%	-1%	-1.0%	0.6
> CCc1ccc(OCC(=O)N(Cc2ccccc2)C2CCS(=O)(=O)C2)cc1 (stereo unspecified)
→ 7%[15.4 µM]	1	-8	-2%	-12%	x	-4.0
> O=C(CNC(=O)c1ccccc1F)NNC(=O)c1ccccc1O
→ 0%[15.4 µM]	-8	2	x	6%	x	x
> CCOC(=O)c1ccc(S(=O)(=O)N2CCN(CCC#N)CC2)cc1
→ -6%	-3	-2	26%	3%	0.7%	2.3
> CN(C)C(=O)CSc1nnc(NC(=O)CCc2ccccc2)s1
→ 6%	6	-3	7%	-2%	x	0.2
> CCCC(C)NC(=O)COc1ccc(Sc2ccc(OCC(=O)NC(C)CCC)cc2)cc1 (stereo unspecified)
→ -13%[15.4 µM]	-3	-5	5%	-9%	-4.0%	5.8
> CCCSc1sc(C(=O)OC)c(-c2cccs2)c1C#N
→ 7%[15.4 µM]	9	-6	-2%	u	x	2.2
> CCOC(=O)C1CCCN(C(=O)CCNS(=O)(=O)c2cc(Br)cnc2N)C1 (stereo unspecified)
→ -7%	6	3	12%	0%	u	x
> Cc1cccc(NC(=O)N(C)Cc2cccs2)c1
→ -43%	-12	-1	9%	-8%	0.8%	0.5
> O=C1C=C(c2ccc(-c3ccccc3)c(F)c2)C[C@@H](c2ccc3c(c2)OCO3)C1
→ 3%	-7	-1	x	2%	3.2%	x
> CCCC(=O)NCC(c1cccs1)S(=O)(=O)c1ccc(Cl)cc1 (stereo unspecified)
→ u	-17	-2	12%	9%	x	x
> COC(=O)C1=C(C(=O)OC)[N+]2=C3N(C(=O)NC2(C)C)[C@H](CO)C[C@@]32c3ccccc3N(Cc3ccccc3)[C@@H]12
→ x	x	-5	x	-3%	-1.0%	x
> CCOC(=O)CC1COCCN1Cc1cn[nH]c1-c1ccc2c(c1)OCO2 (stereo unspecified)
→ 27%	3	-8	16%	-3%	x	1.5
> Cc1ccc(N2CN=C3SCC(=O)N3C2)cc1C
→ -1%	3	-11	10%	-8%	-0.6%	2.6
> O=C(CN1CCN(c2ccccn2)CC1)Nc1ccc([N+](=O)[O-])cc1C(=O)Nc1ccccc1F
→ 27%	4	u	-8%	u	-1.2%	x
> C[C@@]12C(=O)Nc3ccc(Br)cc3C(=O)N1[C@H]1c3cc(Br)ccc3OC[C@@H]1[C@@H]2c1ccccc1
→ x	-47	-47	x	-8%	-2.8%	x
> O=C(OCC(=O)c1ccc[nH]1)c1ccc(Cl)c(Cl)c1
→ 12%	x	-7	x	9%	x	x
> O=C(CSc1nnc(-c2ccco2)n1Cc1ccccc1)c1ccccc1
→ 12%	-8	-4	56µM*	-4%	-2.7%	4.5
> CCOC(=O)c1sc(NC(=S)NC(=O)c2ccco2)nc1C
→ -11%	7	5	u	-6%	-0.9%	8.2

# Next section.
# Results follow in this order: gsp agonist	TRPV1 potentiator	D2 PAM	Sfp PPTase inh	gsp antagonist	ClpP mod	Menin MLL FP FL
> COCCCNCCOCCSc1ccc(Cl)cc1
→ -3%	-6	-16	50µM*	10%	-3.0%	-1.2
> COc1ccc(CNC(=O)/C(C#N)=C/c2cccc(OC)c2OC)cc1
→ -16%[15.4 µM]	29	-15	-7%	4%	1.0%	-6.3
> CC(C)(C)NC(=O)C(c1cccnc1)N(C(=O)c1csnn1)c1ccccc1 (stereo unspecified)
→ 1%	7	-18	7%	-19%	2.8%	-5.7
> COc1nc(Oc2ccc(C(=O)O)cc2)nc(Oc2ccc(C(=O)O)cc2)n1
→ 1%	0	-10	13%	-6%	0.2%	0.5
> COC(=O)c1ccc(NC(=O)CSc2nnc(CNc3ccc(F)cc3)n2C)cc1
→ -30%	-5	5	9%	-12%	0.4%	2.1
> CCN(CC)C(=O)C1CCN(S(=O)(=O)c2ccc3oc4ccccc4c3c2)CC1
→ -11%	4	8	9%	-21%	-1.2%	3.3
> O=C(Nc1nc(-c2ccncc2)cs1)c1ccc(F)cc1
→ u	-17	-8	12%	-11%	-1.5%	-0.7
> CCNC(=O)NC(=O)CSc1ccc2ccccc2c1
→ 7%[15.4 µM]	15	-2	5%	3%	x	-2.3
> COc1ccc(Br)cc1/C=C/c1ccc2cccc(O)c2n1
→ 4%[15.4 µM]	-4	-19	13%	7%	x	-0.2
> CCC(=O)N1CCN(c2nc3ccccc3s2)CC1
→ 18%	-16	24	8%	2%[15.4 µM]	-3.9%	-1.3
> COc1ccc(NC(=O)/C(C#N)=C/c2c(C)nn(-c3ccc(F)cc3)c2Cl)cc1Cl
→ 11%[15.4 µM]	-6	5	-13%	-1%	2.3%	-4.7
> COCc1cc(=O)[nH]c(Nc2nc3ccccc3o2)n1
→ -1%	-11	-29	u	-10%	-15%	-0.7
> CC(C)(C)c1ccc(S(=O)(=O)NCCN2CCOCC2)cc1
→ -47%[inhibitor]	x	-19	x	x	-4.8%	x
> O=C(NNC(=O)c1ccncc1)Nc1ccc([N+](=O)[O-])cc1
→ 1%	10	-1	11%	8%	x	0.2
> O=C(COC(=O)/C=C/c1ccccc1Cl)NC1CCCC1
→ 33%	-20	1	x	-2%	0.1%	x
> O=C(CNS(=O)(=O)c1ccc2c(c1)OCCCO2)N1CCN(c2ccc(F)cc2)CC1
→ -2%	-4	-2	x	3%	0.3%	x

# Assay outcomes as filed in PubChem.
